Compound activity from PubChem.
Arbovirus anti: arbovirus infection inhibition. inhibition, % at 10 µM. 0.37% of 200,000 active. arbovirus infection cell-based antiviral screen;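 active means inhibition from about 30%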;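 further: bluetongue infection of BSR cells; cell survival read as ATP light after 72 h; 0% = infected wells without compound and 100% = uninfected wells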
Mtb betalactam: beta-lactam sensitization of Mtb H37Rv | inhibition, % at 25 µM | 0.27% of 330,000 active | M. tuberculosis H37Rv growth with meropenem, percent inhibition; hits of this screen are not shown here;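 active means about 74% or more and at least 40 points above the plate without the antibiotic, then above 30% in a dose series; inconclusive means first-round hits that could not be retested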;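 further: growth measured after seven days incubation then overnight dye step; 0% = bacteria only wells and 100% = bacteria with antibiotic; twin plates without the antibiotic show which effects depend on it; some results filed as inactive read as strong as hits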
YopH inh: inhibitors of Yersinia enterocolitica YopH tyrosine phosphatase | fluorescence Ex485/Em525 | inhibition, %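 (about 10 µM by stock and volumes)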 | 0.16% of 140,000 active | AID 898;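 active means inhibition of 50% or more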;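 further: controls were vehicle for no effect and minimum signal wells for full effect; inactives centre near -20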
Mtb H37Rv: M. tuberculosis H37Rv growth inhibitors, H37Rv strain (AID 1626); M. tuberculosis H37Rv growth inhibition; higher % means a stronger effect; inhibition, % at 10 µM, or IC50 in µM where a hit was titrated; 0.95% of 220,000 active;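 active means confirmed in a dose series; inconclusive means inhibition above 80% but not taken into the dose series; inactive means below 80% or under 30% at every dose of the series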;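 further: bacteria incubated seven days before Alamar blue readout; 0% = bacteria only wells and 100% = bacteria with antibiotic wells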
RecA intein inh: inhibitors of M. tuberculosis RecA intein splicing; P9WHJ3; inhibition, %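 (about 9 µM by stock and volumes)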; cell-free RecA intein splicing, fluorescence; 0.75% of 290,000 active; AID 2221; in the data active means inhibition above about 30%; inconclusive means no clear call, values can overlap the other calls;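 further: 0% = vehicle wells and 100% = reference inhibitor control wells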
Target sequence (P9WHJ3 whole entry, looked up): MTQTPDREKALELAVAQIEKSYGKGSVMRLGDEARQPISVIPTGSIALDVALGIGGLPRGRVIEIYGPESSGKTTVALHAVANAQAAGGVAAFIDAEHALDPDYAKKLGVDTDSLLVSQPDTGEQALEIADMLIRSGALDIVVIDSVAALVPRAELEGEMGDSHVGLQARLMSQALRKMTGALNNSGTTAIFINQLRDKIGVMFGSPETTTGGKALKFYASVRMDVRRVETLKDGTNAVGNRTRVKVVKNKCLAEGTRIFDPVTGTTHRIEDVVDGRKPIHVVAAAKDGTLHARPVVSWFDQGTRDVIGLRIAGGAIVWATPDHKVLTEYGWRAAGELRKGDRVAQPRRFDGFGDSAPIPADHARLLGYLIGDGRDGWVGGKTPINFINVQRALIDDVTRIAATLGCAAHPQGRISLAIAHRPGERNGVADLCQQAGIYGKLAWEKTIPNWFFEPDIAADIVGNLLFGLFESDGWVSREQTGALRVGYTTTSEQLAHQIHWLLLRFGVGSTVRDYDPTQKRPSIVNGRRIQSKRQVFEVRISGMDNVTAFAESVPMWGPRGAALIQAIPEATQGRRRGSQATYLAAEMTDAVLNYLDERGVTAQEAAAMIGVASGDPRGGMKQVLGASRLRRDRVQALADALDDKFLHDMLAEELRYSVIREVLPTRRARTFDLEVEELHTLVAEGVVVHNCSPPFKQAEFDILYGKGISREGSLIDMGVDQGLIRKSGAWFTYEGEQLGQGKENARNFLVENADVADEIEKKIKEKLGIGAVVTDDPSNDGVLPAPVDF
Active calls of the source: *; ? = inconclusive; / = not tested or not shown. This is a subset; count on the stated rates, not on these rows.

SMILES | Arbovirus anti | Mtb betalactam | YopH inh | Mtb H37Rv | RecA intein inh
CCCN(c1ccccc1F)S(=O)(=O)c1c[nH]c(C(=O)OC)c1 | / | -1.5 | / | / | 3.8
CCOc1ccccc1N1CCN(C(=O)Cc2ccc(S(=O)(=O)N3CCOCC3)s2)CC1 | / | 3.2 | / | / | 4.5
CCN1CCN(Cc2nc3cc(NC(=O)COc4ccc([N+](=O)[O-])cc4)ccc3n2C)CC1 | / | -5.7 | / | / | 3.3
O=C1c2[nH]nc(-c3ccccc3O)c2C(c2ccc(F)cc2)N1Cc1ccco1 (stereo unspecified) | -32.2 | -4.4 | -53.1 | -1.1% | 20.4
COc1ccccc1NC(=O)Cn1c(CCC(=O)O)ccc1-c1ccccc1 | 3.1 | -1.2 | / | 0.6% | 2.1
Cc1c(CCC(=O)NCCCCCC(=O)O)c(=O)oc2c(C)c3oc4c(c3cc12)CCCC4 | / | 6.4 | / | / | -2.9
COc1ccc(NC(=O)NNC(=O)COc2ccc([N+](=O)[O-])c(C)c2)cc1OC | / | -1.1 | / | / | 0.2
C=C(C)CNC(=O)c1ccc(OC2CCN(C(=O)COC)CC2)cc1 | / | -0.6 | / | / | -1.0
CCOc1ccccc1N(CC(=O)N1CCC(C)CC1)S(=O)(=O)c1ccc(C)cc1 | / | 4.0 | / | / | 4.0
CC1CCN(S(=O)(=O)c2ccc3c(c2)CCN3C(=O)C2CCC2)CC1 | / | 2.3 | / | / | -1.2
COc1ccccc1/C=C/C=N/NC(=O)c1cc(-c2ccco2)[nH]n1 | / | 87.6 | / | 36.4% | 9.8
CCOc1ccc(S(=O)(=O)N(C)c2ccc(OCC(=O)Nc3nc4ccccc4s3)cc2)cc1 | 20.9 | -0.3 | -25.4 | 0.6% | 6.4
O=C(/C(=C/c1ccccc1Cl)c1ccccc1)N1CCOCC1 | 4.2 | 3.2 | 0.6 | 8.4% | 5.2
CCOC(=O)c1cc2cc([N+](=O)[O-])cc(OC)c2oc1=O | 4.2 | 46.5 | / | 14.4% | -1.5
CC1CCCC(NC(=O)CN2CCN(Cc3ccc(Cl)cc3)C2=O)C1C (stereo unspecified) | -0.5 | -7.8 | -6.1 | -2.5% | -0.1
O=C(c1ccccc1)N(CCO)Cc1cc2cc3c(cc2[nH]c1=O)OCCO3 | 3.7 | -0.2 | / | 5.8% | 4.5
Cc1ccc(C23CC4CC(CC(C(=O)N(C)C)(C4)C2)C3)cc1 | / | 3.6 | / | / | 4.4
CSc1cccc(CN2CCCC(C(=O)Nc3cccc(-n4cccn4)c3)C2)c1 (stereo unspecified) | / | 99.7 | / | / | 1.1
CCCc1nnc(NC(=O)CCC(=O)Nc2ccc(F)cc2)s1 | -3.1 | 3.2 | 14.2 | -14.4% | -4.7
Clc1ccccc1N1CCN(Cc2ccc3c(c2)OCO3)CC1 | / | 1.8 | / | / | 0.3
Cc1sc2ncnc(NCC3(N4CCOCC4)CCCCC3)c2c1C | -9.2 | 42.2 | -24.4 | 13.6% | 0.5
CCn1c(SCC(=O)N2CCCc3ccccc32)nc2cccnc21 | 0.7 | 4.6 | -45.4 | -6.2% | 4.7
CC(=O)Nc1ccc(NC(=O)Nc2cc(C)cc(C)c2)cc1 | / | -1.1 | / | -8.1% | -0.7
CCOC(=O)N1CCC(NC(=O)c2ccc3c(c2)N(Cc2ccc(F)cc2)CCS3)CC1 | -3.9 | -1.3 | -24.7 | 4.3% | 1.4
CC(=O)c1ccc(OC(=O)N(c2ccccc2)c2ccccc2)cc1 | 3.4 | / | 5.0 | 7.4% | 3.3
O=C(C1CCCO1)N1CCN(C(=S)Nc2ccc(Cl)cc2Cl)CC1 (stereo unspecified) | -5.0 | 6.3 | -21.5 | 0.9% | -2.8
Cc1csc(N2CCCC2c2nc3cc(Cl)c(N4CCCCC4)cc3n2CCOCCO)n1 (stereo unspecified) | / | -6.6 | / | -16.1% | 0.7
CCN1C(=O)c2cccc3c(NC(=O)c4ccc5c(c4)OCCO5)ccc1c23 | -15.4 | 5.7 | 13.5 | -4.5% | -6.3
CC(C(=O)NC1C=CS(=O)(=O)C1)N1C(=O)/C(=C/c2ccc(Cl)cc2)SC1=S (stereo unspecified) | / | 8.0 | / | / | 7.7
COc1cc(/C=N/NC(=O)c2ccc(CSc3nncn3C)cc2)ccc1OCC(=O)N1CC(C)OC(C)C1 (stereo unspecified) | 5.2 | -3.0 | / | -3.0% | 0.5
Cc1ccc(NC(=O)C2CCCN(S(=O)(=O)c3c(C)noc3C)C2)cc1F (stereo unspecified) | -1.5 | -2.9 | -18.7 | 1.2% | -0.8
O=C(CCCSc1nc2ccccc2s1)NCc1ccc2c(c1)OCO2 | -17.9 | 5.4 | -27.9 | 2.7% | 0.8
Cc1ccc(C(=O)NCCc2nnc3ccc(SCC(=O)Nc4ccc(C)cc4C)nn23)cc1 | 4.5 | 2.8 | -31.7 | 1.1% | -0.2
Cc1ccc(C)n1-c1nnc(N2CCC(C(=O)NCCCN3CC(C)CC(C)C3)CC2)s1 (stereo unspecified) | / | -1.5 | / | / | -3.2
O=C(N/N=C/c1cccc(O)c1)c1ccc2c(c1)OCCO2 | / | ? | / | / | 0.3
Cc1ccc(N2CC(C(=O)NCCS(=O)(=O)N3CCN(c4ccccc4)CC3)CC2=O)cc1 (stereo unspecified) | / | 1.4 | / | / | -1.4
CC(C)(C)c1cc(OC(=O)c2ccncc2)ccc1O | -0.3 | -11.4 | 56.8* | -3.9% | /
O=C(Nc1ccccc1C(F)(F)F)c1ccccn1 | -3.8 | 1.4 | / | -5.1% | -0.6
CCSc1nc(N2CCCCC2)c2c(c1C#N)CCCC2 | -22.6 | 69.0 | -15.5 | 4.0% | 14.2
COc1ccc(CC(=O)Nc2ccc(C(=O)O)cc2NC(=O)Cc2ccc(OC)cc2)cc1 | -1.3 | -5.7 | / | -0.4% | -1.9
COc1ccccc1CNC(=O)CSc1nc(=O)n(Cc2ccncc2)c2c1CCC2 | / | -1.9 | / | / | -1.9
CSc1ncccc1C(=O)OCC(=O)N1CCOCC1 | 7.7 | 1.4 | -4.5 | -14.8% | 0.2
COc1ccccc1CNC(=O)CC(C)C | -3.8 | -5.8 | -6.9 | -6.8% | 3.5
CC1(C)CC(=O)c2cnc(N3CCc4ccccc43)nc2C1 | / | 6.6 | / | -1.6% | -0.7
COC(=O)c1cccc(C(=O)Oc2cccc(Br)c2)n1 | 7.6 | 1.3 | -25.8 | -4.8% | -1.9
CCCOc1ccc(N2CC(C(=O)Nc3ncccc3C)CC2=O)cc1 (stereo unspecified) | -0.2 | 66.3 | -26.9 | -0.6% | 2.1
CC1(C)CC(=O)C2=C(C1)Nc1ccccc1NC2c1ccc(F)c(F)c1 (stereo unspecified) | / | 4.5 | / | / | 0.3
COc1ccc(-c2noc(-c3cc(Cl)ccc3Cl)n2)cc1OC | 0.4 | / | -39.3 | -5.1% | /
O=C(O)C(Oc1ccc2ccccc2c1)c1ccccc1 (stereo unspecified) | / | -8.1 | / | / | -1.0
COc1ccccc1Cn1cnc2cccnc21 | 0.9 | -8.3 | -26.5 | -7.6% | -0.5
COc1ccc(CCNC(=O)Cn2c(=O)n(CC3CCCO3)c(=O)c3cc(OC)c(OC)cc32)cc1OC (stereo unspecified) | 3.0 | 1.5 | / | -6.5% | -1.7
Cc1ccc(S(=O)(=O)N2CCN(S(C)(=O)=O)CC2)cc1 | / | -5.8 | 7.2 | -8.6% | 0.6
CCOC(=O)CNS(=O)(=O)c1ccc(C(=O)O)cc1 | 2.5 | -7.2 | -6.1 | 2.1% | -4.0
COc1cc(NC(=O)N[C@H](C(=O)O)C(C)C)cc(OC)c1 | 11.5 | -15.0 | -38.1 | -1.9% | -3.4
COc1cc(N2C(=O)CC(=O)NC2=O)cc(OC)c1OC | / | -7.1 | / | / | -3.9
CCOC(=O)C(=O)Nc1ccccc1C(N)=O | 8.3 | -7.8 | 6.3 | -9.2% | -1.4
C=CCn1c(SCC2CCCCO2)nc2sc(CC)cc2c1=O (stereo unspecified) | / | 4.2 | / | 11.6% | 1.9
CCOC(=O)N1CCC(N2Cc3cccc(C(=O)NCc4ccc(OC)cc4)c3C2=O)CC1 | -0.2 | 2.9 | -14.8 | 3.6% | -0.3
S=C(NNc1nc(Nc2ccccc2)nc(N2CCCCC2)n1)NC1CCCCC1 | -26.7 | 32.4 | / | 65.4% | -1.8
Cc1cccnc1NC(=O)c1cccc(S(=O)(=O)N2CCCc3ccccc32)c1 | / | -13.4 | / | / | -2.4

Whole records, quoted from the list.
O=C(N/N=C/c1cccc(O)c1)c1ccc2c(c1)OCCO2 as listed: Arbovirus anti = /; Mtb betalactam = ?; YopH inh = /; Mtb H37Rv = /; RecA intein inh = 0.3
CC1CCCC(NC(=O)CN2CCN(Cc3ccc(Cl)cc3)C2=O)C1C (stereo unspecified) as listed: Arbovirus anti = -0.5; Mtb betalactam = -7.8; YopH inh = -6.1; Mtb H37Rv = -2.5%; RecA intein inh = -0.1
CCCOc1ccc(N2CC(C(=O)Nc3ncccc3C)CC2=O)cc1 (stereo unspecified) as listed: Arbovirus anti = -0.2; Mtb betalactam = 66.3; YopH inh = -26.9; Mtb H37Rv = -0.6%; RecA intein inh = 2.1

Next part
SMILES | Arbovirus anti | Mtb betalactam | YopH inh | Mtb H37Rv | RecA intein inh
COc1ccccc1NC(=O)C1=C(C)N(c2ccccc2)C(=S)NC1c1cccc(C(F)(F)F)c1 (stereo unspecified) | 3.4 | -0.7 | -9.6 | 1.7% | 1.1
CCCC/S(CC1CC1(Cl)Cl)=N\S(=O)(=O)c1ccc(C)cc1 (stereo unspecified) | -8.2 | -11.6 | -28.6 | -2.6% | 0.3
COc1ccc(C2N(C(C)=O)CCN2S(=O)(=O)c2ccc(C)cc2)cc1 (stereo unspecified) | / | 1.5 | / | / | -3.2
CCc1ccc(-c2cc(C(=O)N/N=C/c3ccco3)[nH]n2)cc1 | -10.6 | 83.7 | / | 42.0% | -0.8
O=C(c1ccccc1)N1CCN(S(=O)(=O)c2cccc(NS(=O)(=O)c3ccccc3)c2)CC1 | -2.2 | -8.0 | / | 1.3% | 0.2
Cc1ccc(S(=O)(=O)N2CCC(NC(=O)c3cccnc3)CC2)cc1Cl | / | -4.3 | / | / | 2.0
O=C1/C(=C/c2cccs2)CCC1C1CCCC1 (stereo unspecified) | -1.9 | -0.7 | / | -4.6% | 0.2
CC(C)c1ccc(NC(=O)COC(=O)COc2ccccc2)cc1 | 4.5 | 0.5 | -16.5 | 4.6% | 8.5
Cc1csc(=O)n1CC(=O)OCc1cccc2ccccc12 | -3.7 | 3.1 | -28.4 | -5.5% | -0.2
CC(C)c1cc(CNC(=O)CC2C(=O)NCCN2CC2CCCCC2)on1 (stereo unspecified) | 7.0 | 2.8 | / | 8.2% | 1.1
Cc1ccc(CC(=O)OCCNC(=O)c2cccnc2)cc1 | 1.8 | -5.5 | -14.6 | 0.2% | 0.3
CCC(C)(C)C1CCc2c(sc(NC(=O)c3ccoc3C)c2C(N)=O)C1 (stereo unspecified) | 8.8 | -0.6 | -18.7 | / | -0.3
COc1ccc(/C=N/NC(=O)C(=O)N2CCCCCC2)cc1 | / | -9.4 | / | / | -3.8
COc1ccc(/C=N/NC(=O)c2ccc3nc[nH]c3c2)c(OC)c1 | / | 1.3 | / | / | -1.3
O=C(COc1ncnc2ccccc12)NC1CCS(=O)(=O)C1 (stereo unspecified) | 2.4 | 9.1 | -6.1 | -2.4% | -4.9
O=C1CCCc2nc(N3CCN(C(c4ccccc4)c4ccccc4)CC3)ncc21 | -18.6 | 2.0 | 0.1 | -9.8% | 10.8
O=c1cc(N2CCCCC2)c(-c2ccccc2)nn1Cc1ccc(Cl)cc1Cl | -46.5 | 11.4 | -32.3 | 18.3% | 12.3
CN(CC(=O)Nc1ccc(S(=O)(=O)N2CCCC2)cc1)CC(=O)Nc1ccc(F)c(F)c1F | -4.1 | -1.4 | / | -8.2% | 6.7
COc1cccc(N=CC=C2OC(C)(C)C(C)(C)O2)c1 | -0.5 | -7.0 | / | 76.3% | -4.7
Cc1ccc(/C=C(\NC(=O)c2ccc(C)cc2)c2nc(=S)[nH][nH]2)cc1 | -44.8 | 93.5 | -15.0 | 59.0% | 1.9
CCCn1c(SCC(=O)N2CCN(S(=O)(=O)c3ccc(Cl)cc3)CC2)n[nH]c1=O | 5.8 | -1.5 | -32.6 | -2.5% | /
O=C(c1ccco1)N1CCN(c2ncnc3c2[nH]c2ccccc23)CC1 | -3.9 | / | -54.5 | / | -0.3
Cc1c(Cl)cccc1NC(=S)N1CCN(C(=O)c2ccco2)CC1 | / | -2.1 | / | / | -5.6
CCCCn1c(N)c(N(CCOC)C(=O)CCNC(=O)c2ccc(Cl)cc2)c(=O)[nH]c1=O | / | -6.5 | / | / | -2.6
CCCCn1c(=O)c(C(C)=O)c(O)c2ccccc21 | 8.6 | -3.1 | / | 4.5% | 0.1
